TRPV1 PAM: human TRPV1 potentiation | 320,000 compounds, 0.02% hits | AID 540277 | TRPV1-expressing cells, Fluo-8 calcium influx, capsaicin EC20 potentiation; host cell line not named in the record; control for the full effect not named in the record | potentiation, % at 8.33 µM | Q8NER1; active means potentiation above 80%; inconclusive means 30% to 80%; inactive means below 30%; note: 0% is about no effect
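Fluo-8 calcium influx in TRPV1-expressing cells, kinetic read (ex 480/em 520 nm). Compound added and read 3 min for agonist activity, followed by capsaicin at EC20 final and 2 min further read for enhancement.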
Sfp inh: blocks B. subtilis Sfp PPTase activity; Q9F4F7; Biochemical Sfp PPTase activity, qHTS; Potency, µM, without a hit: max response, negative = inhibition, usual class: inhibitors; 310,000 compounds, 3.5% hits; active = well fitted inhibition curve with a large enough effect; inconclusive = small, poorly fitted or top-dose-only effect, or another doubt; inactive = no such curve, though single readings can be large or run the other way;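 note: the enzyme is Sfp with the accession as filed and its product quenches rhodamine fluorescence; potency is the fitted concentration of half-maximal effect; 0% = enzyme reaction without inhibitor and -100% = no enzyme wells; top concentration of the series not given in the record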
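Fluorescence-quenching assay: 15 nM Sfp-PPTase preincubated 15 min at room temperature with compound, then 5 uM rhodamine-CoA and 12.5 uM BHQ-2-labelled YbbR peptide added. Fluorescence (ex 525/em 598 nm) read at start and after 30 min; difference gives rate.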
PINK1 modulator: modulators of PINK1 expression; PINK1 immunofluorescence, high-content cytometry, 24 h; Potency, µM (series often up to 76.6 µM), for inactives: top-dose activation (PINK1 increase), hits mostly activators; 410,000 compounds, 0.2% hits; active = well fitted activation curve with a large enough effect; inconclusive = small, poorly fitted or top-dose-only effect; inactive = flat fitted curve, though single readings scatter; cell line not stated here;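 note: potency is the fitted concentration of half-maximal effect; % of control where 0% means no effect; nearly all actives have a fitted effect of over 65% in size; a mitochondrial uncoupler was the plate control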
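Fluorescence from anti-PINK1 antibody, together with nuclear and cell stains, was scanned on a laser-scanning cytometer. Before staining, stable-line cells were incubated 24 hours with compounds at 5 concentrations; primary antibody 12 h at 10 degrees C.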
TRPML1 ag: human mucolipin-1 channel agonism | Q9GZU1 | TRPML1-expressing cells, Ca2+ dye fluorescence, FDSS; host cell line not named in the record; reference of the full effect not given here | activation, % (test concentration not listed) | 410,000 compounds, 0.12% hits | AID 624414; in the data active = activation above about 50%; inconclusive = about 30% to 50%; inactive = below about 30%; note: 0% is about no effect; the text of the record puts the active cut at 80%
Target sequence (Q9GZU1 whole entry, looked up): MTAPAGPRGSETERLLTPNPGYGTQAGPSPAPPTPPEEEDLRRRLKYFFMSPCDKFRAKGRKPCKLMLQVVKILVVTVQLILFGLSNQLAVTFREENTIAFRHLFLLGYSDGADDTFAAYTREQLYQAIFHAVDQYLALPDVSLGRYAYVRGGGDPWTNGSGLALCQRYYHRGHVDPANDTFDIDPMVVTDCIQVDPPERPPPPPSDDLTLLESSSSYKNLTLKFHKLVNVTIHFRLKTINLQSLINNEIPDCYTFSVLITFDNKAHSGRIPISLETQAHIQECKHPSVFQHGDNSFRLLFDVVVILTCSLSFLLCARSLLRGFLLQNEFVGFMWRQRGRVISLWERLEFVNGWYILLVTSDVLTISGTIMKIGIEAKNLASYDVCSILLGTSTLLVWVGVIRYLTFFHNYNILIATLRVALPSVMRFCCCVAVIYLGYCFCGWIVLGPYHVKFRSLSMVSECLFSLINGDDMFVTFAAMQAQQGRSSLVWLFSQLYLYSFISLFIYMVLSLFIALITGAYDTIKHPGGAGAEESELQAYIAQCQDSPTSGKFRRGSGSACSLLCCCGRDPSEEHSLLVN
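In this qHTS format, compounds were pin-transferred onto Ca8-dye-loaded TRPML1-DL cells induced with Tet overnight, and intracellular Ca2+ fluorescence was recorded kinetically for 110 s after a 10 s baseline. A subsequent 4uM final 54-4 (EC80) addition followed by a second 110 s read served as the antagonist phase.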
Menin-MLL FL inh: menin-MLL binding inhibition, fluorescein peptide; Fluorescence polarization, fluorescein-MLL peptide displacement from menin; FP activity change, % at 61.4 µM; 290,000 tested, under 10 active; inconclusive = falling polarisation curve, or a change in total fluorescence; inactive = total fluorescence flat and polarisation flat or rising; no compound was filed as active; the % refers to the polarisation; negative = inhibition;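 note: % of control where 0% means no effect; inhibitors lower the polarisation; unlabelled MLL peptide was the positive control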
ClpP mod: qHTS Assay for Activators of ClpP | Potency, µM (doses to about 57.5 µM), without a hit: top-dose activity change, negative = active | AID 651965, 2013 | ATP-dependent Clp protease proteolytic subunit (Bacillus subtilis (strain 168)), P80244 | purified B. subtilis ClpP, FRET peptide cleavage, 20 min | 340,000 compounds, 1.9% hits; active = well fitted falling curve with a large enough effect; inconclusive = small, poorly fitted or top-dose-only effect; inactive = no such curve, though single readings can be large or run the other way; note: potency is the fitted concentration of half-maximal effect; the source files actives as falling curves though it sought activators and does not explain the sign; nearly all actives have a fitted effect of over 65% in size; many hits overshoot -100%
Target sequence (P80244 whole entry, looked up): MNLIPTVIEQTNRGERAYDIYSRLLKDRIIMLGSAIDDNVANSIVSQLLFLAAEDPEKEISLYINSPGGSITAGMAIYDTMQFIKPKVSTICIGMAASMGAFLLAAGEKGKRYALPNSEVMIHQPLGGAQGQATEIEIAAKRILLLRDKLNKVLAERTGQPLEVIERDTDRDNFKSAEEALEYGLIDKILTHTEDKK
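Buffer: 100 mM Tris/HCl pH8, 100 mM KCl, 0.05% low protease BSA, 2.5% glycerol, 0.01% Tween-20. ClpP 10 microg/mL final; 20 min RT; delta FRET normalized to ADEP and DMSO controls.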
TRPML1 inh: blocks the human TRPML1 channel; 390,000 compounds, 0.02% hits; Q9GZU1; activity change, negative = inhibition, % (concentration not given with the values); TRPML1-inducible cells, Ca2+ dye fluorescence, FDSS; stronger effect = lower value; inhibition of EC80 agonist-evoked calcium signal; in the data active means activity change below about -50%; inconclusive means about -30% to -50%; inactive means above about -30%;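 note: stimulus is agonist 54-4 at its EC80 concentration; % is set by controls: 0 for no effect and ±100 for the full control effect; the text of the record puts the active cut at -80%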
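Tet-induced TRPML1-DL cells loaded with Ca8 no-wash calcium dye were read kinetically on FDSS. Compound addition was followed by EC80 agonist 54-4 (4 uM final); inhibition was read over 110 s.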
An asterisk follows results filed as active.

What do the screens show for `O=C(Nc1ncc(Cc2ccccc2)s1)c1cccs1`?
TRPV1 PAM: -6.3; Sfp inh: 1.7%; PINK1 modulator: 0.4%; TRPML1 ag: 0.1; Menin-MLL FL inh: 0.3; ClpP mod: inconclusive; TRPML1 inh: 30.3

Results for Cc1cccc(C)c1NC(=O)c1oc2c(c1C)-c1nn(Cc3ccccc3)cc1CC2 ?
PINK1 modulator: 0.5%; TRPML1 ag: 2.1; ClpP mod: -12.1%; TRPML1 inh: 47.6

Results for O=[N+]([O-])c1nn(-c2ccccc2)n(O)c1=NCCc1ccccc1 ?
TRPV1 PAM: 12.4; Sfp inh: -22.7%; PINK1 modulator: -2.4%; TRPML1 ag: 1.5; Menin-MLL FL inh: 3.7; ClpP mod: -9.8%; TRPML1 inh: 10.4

What do the screens show for `CCN(CC)C(=O)c1cccc(-c2csc(C(C)(O)c3ccc(F)c(F)c3)n2)c1` (stereo not drawn)?
PINK1 modulator: 4.3%; TRPML1 ag: -0.8; ClpP mod: -0.1%

What do the screens show for `O=C(C1CCN(C2CC(=O)N(c3cccc(Cl)c3)C2=O)CC1)N1CCCCCC1` (stereo not drawn)?
TRPV1 PAM: -7.2; Sfp inh: 8.3%; PINK1 modulator: 1.1%; TRPML1 ag: -0.2; Menin-MLL FL inh: 4.8; ClpP mod: 1.2%; TRPML1 inh: inconclusive

How did O=C(/C=C/c1ccc(Cl)c(Cl)c1)NC1=NCCS1 do in these assays?
TRPV1 PAM: -4.9; Sfp inh: 18.6%; PINK1 modulator: 3.0%; TRPML1 ag: -0.7; Menin-MLL FL inh: 0.6; TRPML1 inh: -6.3

How did CC1C(=O)C(C)C(c2ccccc2F)NC1c1ccccc1F (stereo not drawn) do in these assays?
TRPV1 PAM: -22.3; Sfp inh: -0.5%; PINK1 modulator: 6.6%; TRPML1 ag: 0.5; Menin-MLL FL inh: -1.6; ClpP mod: -1.9%; TRPML1 inh: 13.5

What do the screens show for `CC[C@@H]1CC=C[C@H]2[C@H]1C(=O)N(Cc1ccccc1)[C@H]2c1ccc(C(F)(F)F)cc1`?
TRPV1 PAM: -18.6; Sfp inh: 12.9%; PINK1 modulator: 3.8%; TRPML1 ag: 3.0; Menin-MLL FL inh: 1.1; ClpP mod: -5.3%; TRPML1 inh: 59.8

Results for COc1ccc(C(=O)Nc2ccccc2-c2nnn(CC(=O)N3CCOCC3)n2)cc1 ?
TRPV1 PAM: -16.3; Sfp inh: 9.4%; PINK1 modulator: -0.7%; TRPML1 ag: 3.8; Menin-MLL FL inh: 0.1; ClpP mod: 0.4%; TRPML1 inh: -0.3

How did CSCCC(NS(=O)(=O)c1ccc(C)cc1)C(=O)NC1CCCCC1 (stereo not drawn) do in these assays?
TRPV1 PAM: -16.2; Sfp inh: 13.1%; PINK1 modulator: 1.5%; TRPML1 ag: -0.3; Menin-MLL FL inh: -3.9; ClpP mod: 0.9%; TRPML1 inh: -13.6

How did CC(C)CN1CN(Cc2ccco2)CNC1=S do in these assays?
TRPV1 PAM: -4.0; Sfp inh: 10.9%; PINK1 modulator: 1.3%; TRPML1 ag: -0.6; Menin-MLL FL inh: 0.6; ClpP mod: 0.7%; TRPML1 inh: 1.5

What do the screens show for `O=C(Nc1ccccc1)c1ccc2c(c1)OCO2`?
TRPV1 PAM: -12.9; Sfp inh: 15.4%; PINK1 modulator: -0.3%; TRPML1 ag: -0.4; Menin-MLL FL inh: 2.3; ClpP mod: 1.0%; TRPML1 inh: 5.2

How did CCOc1ccc(N=c2scc(-c3ccc(OC)cc3)n2CCO)cc1 do in these assays?
TRPV1 PAM: -6.3; Sfp inh: -12.0%; PINK1 modulator: 1.3%; TRPML1 ag: 2.1; Menin-MLL FL inh: 1.4; ClpP mod: 0.7%; TRPML1 inh: -5.8

What do the screens show for `OC[C@H]1O[C@@H](c2nc(-c3ccc(Br)cc3)no2)C[C@@H]1O`?
PINK1 modulator: 1.0%; TRPML1 ag: 0.2; ClpP mod: -6.2%

What do the screens show for `CCOC(=O)c1ccc(NC(=S)N2CCSC2c2ccc(OC)cc2)cc1` (stereo not drawn)?
TRPV1 PAM: 8.9; Sfp inh: -1.4%; PINK1 modulator: 3.7%; TRPML1 ag: 2.8; Menin-MLL FL inh: 3.7; ClpP mod: -18.2%; TRPML1 inh: -10.1

What do the screens show for `CCOc1cccc(C2c3[nH]c4ccccc4c3CCN2C(=O)c2ccccc2F)c1` (stereo not drawn)?
PINK1 modulator: 1.0%; TRPML1 ag: -0.1; ClpP mod: -3.2%; TRPML1 inh: 0.7

Results for COc1ccc2c(c1)CCc1c(C(=O)Nc3c(C)nn(Cc4ccc(Cl)cc4)c3C)noc1-2 ?
PINK1 modulator: -0.3%; TRPML1 ag: -0.9; ClpP mod: -10.0%; TRPML1 inh: 11.8

Results for CC(=O)Nc1ccc(NC(=O)CCOc2ccccc2C)cc1 ?
TRPV1 PAM: 6.3; Sfp inh: 8.1%; PINK1 modulator: 1.9%; TRPML1 ag: -0.2; TRPML1 inh: -5.0

Results for O=C(CN1CCN(Cc2ccccc2)CC1)N1N=CCC1c1ccccc1 (stereo not drawn) ?
TRPV1 PAM: 27.1; Sfp inh: -9.5%; PINK1 modulator: -0.9%; Menin-MLL FL inh: 7.4; ClpP mod: 1.0%

Results for CCCCn1c(N)c(N(CC(C)C)C(=O)CCCc2cccs2)c(=O)[nH]c1=O ?
TRPV1 PAM: -5.3; Sfp inh: 13.7%; PINK1 modulator: 3.0%; TRPML1 ag: -0.1; ClpP mod: -2.6%; TRPML1 inh: -3.5

How did COc1cc(NC(=O)c2cccnc2)ccc1-c1cc2ccccc2oc1=O do in these assays?
TRPV1 PAM: 6.1; Sfp inh: 10.1%; Menin-MLL FL inh: 0.2

Results for CC1=NOC(=O)/C1=C\c1ccc(-c2ccc(Br)cc2C(=O)O)o1 ?
TRPV1 PAM: 1.2; Sfp inh: inconclusive; PINK1 modulator: 0.0%; TRPML1 ag: -0.4; Menin-MLL FL inh: inconclusive; TRPML1 inh: -9.1

Results for Cc1cc(C)nc(NC(=O)CSc2ccccn2)n1 ?
TRPV1 PAM: 20.3; Sfp inh: 18.1%; PINK1 modulator: -1.4%; TRPML1 ag: 0.4; Menin-MLL FL inh: -0.3; ClpP mod: -1.5%; TRPML1 inh: 21.2

How did COCc1cc(C2C(C(=O)c3ccco3)=C(O)C(=O)N2CCOCCO)ccc1O (stereo not drawn) do in these assays?
TRPV1 PAM: -5.7; Sfp inh: 1.4%; PINK1 modulator: -0.6%; TRPML1 ag: 0.0; Menin-MLL FL inh: -0.7; ClpP mod: -0.7%; TRPML1 inh: 11.7

Results for O=C(NCc1ccncc1)[C@@H]1CCCN1C(=O)[C@@H]1CCCN1C(=O)c1c(F)cccc1F ?
PINK1 modulator: 0.2%; TRPML1 ag: -0.3; ClpP mod: 2.0%

How did O=C(N/N=C/c1c(Cl)cccc1Cl)c1n[nH]c2c1CCCC2 do in these assays?
TRPV1 PAM: -5.6; Sfp inh: 0.9%; PINK1 modulator: 4.7%; TRPML1 ag: -0.7; Menin-MLL FL inh: 5.8; ClpP mod: 1.8%; TRPML1 inh: 13.9

How did COc1ccc(CC(=O)O/N=C(\N)Cc2ccc([N+](=O)[O-])cc2)cc1 do in these assays?
TRPV1 PAM: -9.0; Sfp inh: 10.0%; PINK1 modulator: 0.7%; TRPML1 ag: 0.4; Menin-MLL FL inh: 2.0; ClpP mod: -0.3%; TRPML1 inh: -7.0

What do the screens show for `CCOc1ccc(NC2c3ccccc3C(=O)N2Cc2ccco2)cc1` (stereo not drawn)?
TRPV1 PAM: 8.3; Sfp inh: -23.7%; PINK1 modulator: 0.9%; TRPML1 ag: -0.5; Menin-MLL FL inh: 3.0; ClpP mod: 0.2%; TRPML1 inh: -13.8

How did CN1C(=O)C(O)(CC(=O)/C=C/C=C/c2ccccc2)c2ccccc21 (stereo not drawn) do in these assays?
TRPV1 PAM: -4.4; Sfp inh: inconclusive; PINK1 modulator: 1.8%; TRPML1 ag: 5.8; Menin-MLL FL inh: 1.3; ClpP mod: 0.7%; TRPML1 inh: 12.1

Results for COc1ccc2c(c1)CCc1c(C(=O)Nc3cc(OC)c(Cl)cc3OC)noc1-2 ?
PINK1 modulator: -1.0%; TRPML1 ag: -0.5; ClpP mod: 66.9%; TRPML1 inh: -7.6

What do the screens show for `CCCCN(C(=O)c1ccc(Br)o1)C1CCS(=O)(=O)C1` (stereo not drawn)?
TRPV1 PAM: 18.7; PINK1 modulator: -0.1%; TRPML1 ag: 0.4; ClpP mod: 0.2%; TRPML1 inh: 27.8

Results for COc1cccc(CNC(=O)[C@@H]2CCCN2C(=O)[C@@H]2CCCN2C(=O)OC(C)(C)C)c1 ?
PINK1 modulator: -0.3%; TRPML1 ag: -0.9; ClpP mod: 1.4%

Results for CCCNC(=O)c1oc2ccc3c(c2c1C)C=CC(C)(C)O3 ?
TRPV1 PAM: -2.7; Sfp inh: -0.5%; PINK1 modulator: 5.8%; TRPML1 ag: -0.9; Menin-MLL FL inh: -2.6; ClpP mod: -10.1%; TRPML1 inh: 6.4

What do the screens show for `Cc1cccc(C)c1NC(=O)c1ccc2c(c1)N(Cc1cccc(Cl)c1)C(=O)c1ccccc1S2=O` (stereo not drawn)?
PINK1 modulator: 1.2%; TRPML1 ag: 4.2; ClpP mod: 0.2%; TRPML1 inh: 39.6

How did CC(=O)c1c(O)c(C)c(O)c2c1OC1=CC(=O)/C(=C(/C)N)C(=O)C12C (stereo not drawn) do in these assays?
PINK1 modulator: 3.4%; TRPML1 ag: 1.1; ClpP mod: -3.7%; TRPML1 inh: -26.3

What do the screens show for `COc1ccc(C(=O)/C=C/c2cn(CC(O)CN3CCc4ccccc43)c3ccccc23)cc1OC` (stereo not drawn)?
PINK1 modulator: 0.9%; TRPML1 ag: 0.1; ClpP mod: -0.7%; TRPML1 inh: 9.5

What do the screens show for `N#CCCn1c(=O)c(-c2ccccc2)nc2cnc(N3CCOCC3)nc21`?
Sfp inh: -4.6%; PINK1 modulator: 0.3%; Menin-MLL FL inh: -27.3

At a glance, part of the list above.
What do the screens show for `COc1ccc(C(=O)/C=C/c2cn(CC(O)CN3CCc4ccccc43)c3ccccc23)cc1OC` (stereo not drawn)?
PINK1 modulator: 0.9%; TRPML1 ag: 0.1; ClpP mod: -0.7%; TRPML1 inh: 9.5

What do the screens show for `N#CCCn1c(=O)c(-c2ccccc2)nc2cnc(N3CCOCC3)nc21`?
Sfp inh: -4.6%; PINK1 modulator: 0.3%; Menin-MLL FL inh: -27.3

Screens from PubChem BioAssay.
